T. gondii HeLa – Toxoplasma gondii ME49Luc growth in HeLa cells, luciferase, no IFN-y, primary screen (AID 1259421); T. gondii ME49Luc in HeLa, luciferase, 72 h, no IFN-y; stronger effect = lower value; reference of the scale and settings of repeat entries not given here; many of its hits are not listed in these tables; activity change, negative = inhibition, %; 6,400 compounds, 9.6% hits;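 active = activity change below -70%; inconclusive = fit judged invalid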;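 note: about 20 µM from a 10 mM stock diluted 500-fold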
Starred values were filed as active, the others as inactive; & = joins results of further samples. Only part of the results is shown; count on the stated rates, not on these rows.

For c1cc2c(cc1C1CCCCC1)c1c3n2CCNC3CCC1 (stereo not drawn) the results were T. gondii HeLa 27&24.
Screening CCCCS(=N)(=O)CC[C@H](N)C(=O)O (stereo partly drawn) returned T. gondii HeLa 0.
O=C(CCCN1CCC(O)(c2cccc(C(F)(F)F)c2)CC1)c1ccc(F)cc1 was read as T. gondii HeLa 30.
Screening C[C@H](NC(=O)/C(C#N)=C/c1ccc(O)c(O)c1)c1ccccc1 returned T. gondii HeLa 33&14.
For Nc1ncnc2c1ncn2[C@@H]1O[C@H](CO)[C@@H](O)[C@H]1O the results were T. gondii HeLa 6.
For CNC(=O)Nc1ccc(-c2nc(N3CC4CCC(C3)O4)c3cnn(C4CCC5(CC4)OCCO5)c3n2)cc1 the results were T. gondii HeLa -24.
Screening Cc1c(OCC(F)(F)F)ccnc1CS(=O)c1nc2ccccc2[nH]1 (stereo not drawn) returned T. gondii HeLa 140&123.
`CCCCc1nc2cc(/C=C/C(=O)NO)ccc2n1CCN(CC)CC` gave T. gondii HeLa -94*.
`C/C(=C\C(=O)OCCCCCCCCC(=O)O)C[C@@H]1OC[C@H](C[C@@H]2O[C@H]2[C@@H](C)[C@H](C)O)[C@@H](O)[C@H]1O` gave T. gondii HeLa -14.
`CC(=O)O[C@H]1CC[C@@]2(C)C(=CC[C@@H]3[C@@H]2CC[C@]2(C)C(c4cccnc4)=CC[C@@H]32)C1` gave T. gondii HeLa -38&-59.
Screening NCCCCN=C(N)N returned T. gondii HeLa 12.
For O=C(c1ccc(F)cc1)C1CCN(CCCCc2ccccc2)CC1 the results were T. gondii HeLa 9&4.
For O=C1NC(=O)/C(=C\c2cccc(C(F)(F)F)c2)S1 the results were T. gondii HeLa 12.
O=C(NCCc1ccc(O)c(O)c1)C12CC3CC(CC(C3)C1)C2 was read as T. gondii HeLa 1.
CN(C)CC/C=C1/c2ccccc2Sc2ccc(Cl)cc21 was read as T. gondii HeLa 36&-62.
`C=C[C@@H]1C[C@]1(NC(=O)[C@@H]1C[C@@H]2CN1C(=O)[C@H](C(C)(C)C)NC(=O)O[C@@H]1C[C@H]1CCCCCc1nc3ccc(OC)cc3nc1O2)C(=O)NS(=O)(=O)C1CC1` gave T. gondii HeLa 0.
`CCN(CC)CCOC(=O)c1cc(Cl)c(N)cc1OC` gave T. gondii HeLa -1&-3.
Cc1cc(N2CCN([C@@H]3CN[C@H](C(=O)N4CCSC4)C3)CC2)n(-c2ccccc2)n1 was read as T. gondii HeLa -3.
Cc1cccc(/C=C/c2ccccc2)n1 was read as T. gondii HeLa 36.
For CC(C)=CCc1c(O)cc2oc(C)cc(=O)c2c1O the results were T. gondii HeLa 2.
Clc1ccc2c(c1)N=C(N1CCNCC1)c1ccccc1N2 was read as T. gondii HeLa 6.
Screening COc1ccc(C(C)=O)c(O)c1 returned T. gondii HeLa -2&9.
For C=C1/C(=C/C=C2/CCC[C@]3(C)[C@@H]([C@H](C)CCCC(C)C)CC[C@@H]23)C[C@@H](O)C[C@@H]1O the results were T. gondii HeLa -75*.
`O=C(O)COc1cccc(-c2ocnc2-c2nc(-c3ccccc3)c(-c3ccccc3)o2)c1` gave T. gondii HeLa -9.
For CC(C)NC(=O)COc1cccc(-c2nc(Nc3ccc4[nH]ncc4c3)c3ccccc3n2)c1 the results were T. gondii HeLa -49.
`C[C@@]12CCc3occc3[C@H]1CC[C@@]13C[C@@H](CC[C@H]12)[C@@](O)(CO)C3` gave T. gondii HeLa 14.
Screening C=C1CCC2C(CC2(C)C)C(=O)CCC1O (stereo not drawn) returned T. gondii HeLa 5.
O=C(NS(=O)(=O)c1ccc(Br)s1)c1ccc(Cl)cc1Cl was read as T. gondii HeLa 15.
O=C(CNC(=O)c1ccc(Cl)cc1)NO was read as T. gondii HeLa 36.
Screening NC(=O)C1CC2(NC(=O)NC2=O)c2cc(F)ccc2O1 (stereo not drawn) returned T. gondii HeLa 13.

Sorted by formula weight (low to high): some entries from above
Cc1cccc(/C=C/c2ccccc2)n1 was read as T. gondii HeLa 36.
For CC(C)=CCc1c(O)cc2oc(C)cc(=O)c2c1O the results were T. gondii HeLa 2.
For O=C1NC(=O)/C(=C\c2cccc(C(F)(F)F)c2)S1 the results were T. gondii HeLa 12.
Screening Cc1c(OCC(F)(F)F)ccnc1CS(=O)c1nc2ccccc2[nH]1 (stereo not drawn) returned T. gondii HeLa 140&123.
`C/C(=C\C(=O)OCCCCCCCCC(=O)O)C[C@@H]1OC[C@H](C[C@@H]2O[C@H]2[C@@H](C)[C@H](C)O)[C@@H](O)[C@H]1O` gave T. gondii HeLa -14.

Next compounds follow:
Screening CCCN1C[C@H](CSC)C[C@@H]2c3cccc4[nH]cc(c34)C[C@H]21 returned T. gondii HeLa 10&5.
Screening Cc1cc(SCc2sc(-c3ccc(C(F)(F)F)cc3)nc2C)ccc1OCC(=O)O returned T. gondii HeLa 58.
For N#Cc1ccccc1OCC(O)CNCCNC(=O)Nc1ccccc1 (stereo not drawn) the results were T. gondii HeLa -13&10.
For CCNC(=O)c1noc(-c2cc(C(C)C)c(O)cc2O)c1-c1ccc(CN2CCOCC2)cc1 the results were T. gondii HeLa -88*.
`Clc1ccc(C2(c3ccc(-c4cn[nH]c4)cc3)CCNCC2)cc1` gave T. gondii HeLa inconclusive.
For N#CC(=C(/N)Sc1ccccc1N)/C(C#N)=C(\N)Sc1ccccc1N the results were T. gondii HeLa 0.
N#C/C(=C/c1ccc(O)c(O)c1)C(=O)NCCCCc1ccccc1 was read as T. gondii HeLa 29.
Screening C=CC(=O)Nc1ccc2ncnc(Nc3cccc(Br)c3)c2c1 returned T. gondii HeLa -18.
`C[C@@]12CCC3[C@@](CC[C@@H]4[C@](C)(C(=O)O)CCC[C@@]34C)(CC1=O)C2` (stereo partly drawn) gave T. gondii HeLa 8.
Screening CC[C@@H]([C@H](C)O)n1ncn(-c2ccc(N3CCN(c4ccc(OC[C@@H]5CO[C@@](Cn6cncn6)(c6ccc(F)cc6F)C5)cc4)CC3)cc2)c1=O returned T. gondii HeLa -66.
For Cc1ccc([C@@H]2O[C@H](CO)[C@@H](O)[C@H](O)[C@H]2O)cc1Cc1ccc(-c2ccc(F)cc2)s1 the results were T. gondii HeLa 15.
For CC(C)Oc1ccc2c(=O)cc(-c3ccccc3)oc2c1 the results were T. gondii HeLa 458.
CCn1c(=O)[nH]c2cc(Cl)c(Cl)cc21 was read as T. gondii HeLa -79*.
`Brc1c(NC2=NCCN2)ccc2nccnc12` gave T. gondii HeLa 9&-8&-8.
`COC(=O)NC(C(=O)N[C@@H](Cc1ccccc1)C(O)CN(Cc1ccc(-c2ccccn2)cc1)NC(=O)C(NC(=O)OC)C(C)(C)C)C(C)(C)C` (stereo partly drawn) gave T. gondii HeLa -10.
For CN(C)CCC=C1c2ccccc2CCc2ccccc21 the results were T. gondii HeLa 17&-51.
For O=C(/C=C/c1ccccc1)NC(NC(=S)Nc1cccc2cccnc12)C(Cl)(Cl)Cl (stereo not drawn) the results were T. gondii HeLa inconclusive.
`CCOC(=S)SSC(=S)OCC` gave T. gondii HeLa 11.
`O=C1/C(=C/c2ccccc2)C(NC2CCCCC2)c2ccccc21` (stereo not drawn) gave T. gondii HeLa 16.
COc1ccc2c(c1)c(CC(=O)N1CCOCC1)c(C)n2C(=O)c1ccc(Cl)cc1 was read as T. gondii HeLa 6&1.

Among those listed so far, these contain an aryl methoxy group.
`C=C[C@@H]1C[C@]1(NC(=O)[C@@H]1C[C@@H]2CN1C(=O)[C@H](C(C)(C)C)NC(=O)O[C@@H]1C[C@H]1CCCCCc1nc3ccc(OC)cc3nc1O2)C(=O)NS(=O)(=O)C1CC1` gave T. gondii HeLa 0.
`CCN(CC)CCOC(=O)c1cc(Cl)c(N)cc1OC` gave T. gondii HeLa -1&-3.
Screening COc1ccc(C(C)=O)c(O)c1 returned T. gondii HeLa -2&9.
COc1ccc2c(c1)c(CC(=O)N1CCOCC1)c(C)n2C(=O)c1ccc(Cl)cc1 was read as T. gondii HeLa 6&1.

More results.
`CC(C)(C)C1CCC(CC2C(=O)C(=O)c3ccccc3C2=O)CC1` (stereo not drawn) gave T. gondii HeLa -75*.
For CN=c1nc(-c2ccccc2)n(-c2ccccc2)s1 the results were T. gondii HeLa 63.
`COc1ccccc1Oc1c(NS(=O)(=O)c2ccc(C)cn2)nc(-c2ccncc2)nc1OC` gave T. gondii HeLa 7.
Screening CN1CCCC(CC2c3ccccc3Sc3ccccc32)C1 (stereo not drawn) returned T. gondii HeLa 34.
For C[N+](C)(C)CC(O)CC(=O)O (stereo not drawn) the results were T. gondii HeLa -1.
For Cc1ccc(NC(=O)c2cccc(N(C)C)c2)cc1NC(=O)c1ccc(O)cc1 the results were T. gondii HeLa -7&-11.
Screening NC(N)=NCCNS(=O)(=O)c1cccc2cnccc12 returned T. gondii HeLa 16&0.
`COc1cc(NS(C)(=O)=O)ccc1Cc1c2ccccc2nc2ccccc12` gave T. gondii HeLa -79*.
For CC(C)OC(=O)N1CCC(Oc2ncnc3c2cnn3-c2ccc(S(C)(=O)=O)cc2F)CC1 the results were T. gondii HeLa -1.
Cc1c(C(=O)NN2CCOCC2)nn(-c2ccc(Cl)cc2Cl)c1-c1ccc(I)cc1 was read as T. gondii HeLa 0&13.
Screening Cc1cc(NC(=O)C2C(=O)c3ccccc3S(=O)(=O)N2C)no1 (stereo not drawn) returned T. gondii HeLa 4&7.
Screening CCN(CC)CCCCN1c2ccccc2Oc2ccc(Cl)cc21 returned T. gondii HeLa 12&-10.
Cc1cc(-c2ccc(N=Nc3ccc4c(S(=O)(=O)O)cc(S(=O)(=O)O)c(N)c4c3O)c(C)c2)ccc1N=Nc1ccc2c(S(=O)(=O)O)cc(S(=O)(=O)O)c(N)c2c1O was read as T. gondii HeLa -46.
`c1ccc2sc(N3CCN(Cc4ccc5c(c4)OCO5)CC3)nc2c1` gave T. gondii HeLa 17&12.
Screening O=C1NCCc2[nH]c(-c3ccncc3)cc21 returned T. gondii HeLa -76*.
`COc1cc(N)c(Cl)cc1C(=O)CCC1CCN(CCNS(C)(=O)=O)CC1` gave T. gondii HeLa -1&2.
C=C1/C(=C\C=C2/CCC[C@]3(C)[C@@H]([C@H](C)/C=C/[C@H](C)C(C)(C)O)CC[C@@H]23)C[C@@H](O)C[C@@H]1O was read as T. gondii HeLa 13.
For Cc1ccc2c(c1)c1c3n2CCNC3CCC1 (stereo not drawn) the results were T. gondii HeLa 13.
For CC(N)=NCCCC[C@H](N)C(=O)O the results were T. gondii HeLa 11.
COc1cc(-c2ccc(N=Nc3ccc4c(S(=O)(=O)O)cc(S(=O)(=O)O)c(N)c4c3O)c(OC)c2)ccc1N=Nc1ccc2c(S(=O)(=O)O)cc(S(=O)(=O)O)c(N)c2c1O was read as T. gondii HeLa -14&-28.
C[C@H](CCC(=O)NCC(=O)O)[C@H]1CCC2C3C(C[C@H](O)[C@@]21C)[C@@]1(C)CC[C@@H](O)CC1C[C@H]3O (stereo partly drawn) was read as T. gondii HeLa 3.
`CN1CCC[C@@H]1CCO[C@](C)(c1ccccc1)c1ccc(Cl)cc1` gave T. gondii HeLa 21&26.
Screening CNC(C)CCC=C(C)C (stereo not drawn) returned T. gondii HeLa 6.
For N[C@@H](CSCC(=O)O)C(=O)O the results were T. gondii HeLa 14.
Cc1cccc(Nc2ccncc2S(=O)(=O)NC(=O)NC(C)C)c1 was read as T. gondii HeLa 14.
For COc1ccc(Nc2nccc(NCCO)n2)cc1 the results were T. gondii HeLa 53.
For CCC1OC(=O)[C@H](C)C(=O)[C@H](C)[C@@H](OC2O[C@H](C)C[C@H](N(C)C)[C@H]2O)[C@](C)(OC)C[C@@H](C)C(=O)[C@H](C)[C@H]2N(CCCCn3cnc(-c4cccnc4)c3)C(=O)O[C@@]12C (stereo partly drawn) the results were T. gondii HeLa -5.
Screening Clc1cccc(/C=N/N=C/c2cccc(Cl)c2)c1 returned T. gondii HeLa 8.
CC(C)(Oc1ccc(Cl)cc1)C(=O)OCCOC(=O)c1cccnc1 was read as T. gondii HeLa 15.
Screening C=C[C@]1(C)C[C@@H](OC(=O)CSC2C[C@H]3CC[C@@H](C2)N3C)[C@]2(C)[C@H](C)CC[C@]3(CCC(=O)[C@H]32)[C@@H](C)[C@@H]1O (stereo partly drawn) returned T. gondii HeLa -19.
For O=C1Nc2ccc(Cl)cc2[C@@](C#CC2CC2)(C(F)(F)F)O1 the results were T. gondii HeLa 24.
Screening COc1cccc(N2CCN(C3=Nc4c(F)cccc4[C@H](CC(=O)O)N3c3cc(C(F)(F)F)ccc3OC)CC2)c1 returned T. gondii HeLa -2.
CC[C@@H](C(=O)[C@@H](C)[C@@H](O)[C@H](C)[C@@H]1O[C@@H]([C@@H](CC)C(=O)O)CC[C@@H]1C)[C@H]1O[C@]2(C=C[C@@H](O)[C@]3(CC[C@@](C)(C4CC[C@](O)(CC)[C@H](C)O4)O3)O2)[C@H](C)C[C@@H]1C (stereo partly drawn) was read as T. gondii HeLa -83*.
Cc1cn(-c2cc(NC(=O)c3ccc(C)c(Nc4nccc(-c5cccnc5)n4)c3)cc(C(F)(F)F)c2)cn1 was read as T. gondii HeLa -76*.
`O=C(O)c1cc(O)c2c(c1)C(=O)c1cccc(O)c1C2=O` gave T. gondii HeLa 18.
For Cc1nnc(C(C)C)n1C1CC2CCC(C1)N2CC[C@H](NC(=O)C1CCC(F)(F)CC1)c1ccccc1 (stereo partly drawn) the results were T. gondii HeLa 31&11.
`C=C1C(=O)O[C@@H]2[C@H]3O[C@]3(C)CC/C=C(\C)CC[C@@H]12` gave T. gondii HeLa 6.
CC1=C(C(=O)OC2CCCCC2)C(c2ccc([N+](=O)[O-])cc2)C2=C(CC(C)(C)CC2=O)N1 (stereo not drawn) was read as T. gondii HeLa -59.
